# Screens from PubChem BioAssay.
# Sfp inh: qHTS Assay for Inhibitors of Bacillus subtilis Sfp phosphopantetheinyl transferase (PPTase) | 4'-phosphopantetheinyl transferase ffp (Bacillus subtilis), Q9F4F7 | Biochemical Sfp PPTase activity, qHTS | Potency, µM, for inactives: max response, negative = inhibition, most hits filed as inhibitors | actives 3.5% (n = 310,000); active means well fitted inhibition curve with a large enough effect; inconclusive means small, poorly fitted or top-dose-only effect, or another doubt; inactive means no such curve, though single readings can be large or run the other way;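 further: the enzyme is Sfp with the accession as filed and its product quenches rhodamine fluorescence; potency means the concentration at half of the fitted maximal effect; 0% = enzyme reaction without inhibitor and -100% = no enzyme wells; top concentration of the series not given in the record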
#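 Compounds were incubated with enzyme (final 15 nM) for 15 min at room temperature before substrate addition started the reaction. Fluorescence at 525 nm excitation, 598 nm emission was recorded immediately and after 30 minutes.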
# Menin MLL FP FL: qHTS Assay for Inhibitors Targeting the Menin-MLL Interaction in MLL Related Leukemias: Competition With Fluorescein Labeled MLL-derived Peptide. Fluorescence polarization, fluorescein-MLL peptide displacement from menin. 290,000 tested, under 10 active. AID 1766, 2009. FP activity change, % at 61.4 µM; inconclusive = falling polarisation curve, or a change in total fluorescence; inactive = total fluorescence flat and polarisation flat or rising; no compound was filed as active; the % refers to the polarisation; negative = inhibition;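 further: % of control where 0% means no effect; inhibitors lower the polarisation; unlabelled MLL peptide was the positive control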
# ClpP mod: qHTS Assay for Activators of ClpP; ATP-dependent Clp protease proteolytic subunit (Bacillus subtilis (strain 168)), P80244; purified B. subtilis ClpP, FRET peptide cleavage, 20 min; Potency, µM (top dose mostly 57.5 µM), without a hit: top-dose activity change, negative = active; actives 1.9% (n = 340,000); AID 651965, 2013; active = well fitted falling curve with a large enough effect; inconclusive = small, poorly fitted or top-dose-only effect; inactive = no such curve, though single readings can be large or run the other way; further: potency means the concentration at half of the fitted maximal effect; the source files actives as falling curves though it sought activators and does not explain the sign; nearly all actives have a fitted effect of over 65% in size; many hits overshoot -100%
# Target sequence (P80244 whole entry, looked up): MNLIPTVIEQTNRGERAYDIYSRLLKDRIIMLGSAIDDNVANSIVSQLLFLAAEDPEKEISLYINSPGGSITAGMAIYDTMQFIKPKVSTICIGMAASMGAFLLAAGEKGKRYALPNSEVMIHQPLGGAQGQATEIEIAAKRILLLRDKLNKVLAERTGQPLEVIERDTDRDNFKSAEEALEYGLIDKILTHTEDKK
#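 FRET quenching reversal measured ClpP activation: 10 microg/mL B. subtilis ClpP at pH 8 with the FRET-FV decapeptide, read at 430 nm after 320 nm excitation. The 20-min minus 0-min signal was scaled between DMSO/no-enzyme wells and ADEP (5.8 microM final).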
# D2 ag: Beta-Arrestin HTS for Positive Allosteric Modulators of the Human D2 Dopamine Receptor: Agonists; DiscoveRx PathHunter D2 beta-arrestin, luminescence, 90 min; 100% = 57 uM dopamine signal; D(2) dopamine receptor (Homo sapiens), P14416; activation, % (concentration not given with the values); actives 0.084% (n = 360,000); in the data active = activation above about 40%; inconclusive = about 15% to 40%; inactive = below about 15%; further: compound concentration not given in the record; the text of the record calls up to 30% inactive
# Target sequence (P14416 whole entry, looked up): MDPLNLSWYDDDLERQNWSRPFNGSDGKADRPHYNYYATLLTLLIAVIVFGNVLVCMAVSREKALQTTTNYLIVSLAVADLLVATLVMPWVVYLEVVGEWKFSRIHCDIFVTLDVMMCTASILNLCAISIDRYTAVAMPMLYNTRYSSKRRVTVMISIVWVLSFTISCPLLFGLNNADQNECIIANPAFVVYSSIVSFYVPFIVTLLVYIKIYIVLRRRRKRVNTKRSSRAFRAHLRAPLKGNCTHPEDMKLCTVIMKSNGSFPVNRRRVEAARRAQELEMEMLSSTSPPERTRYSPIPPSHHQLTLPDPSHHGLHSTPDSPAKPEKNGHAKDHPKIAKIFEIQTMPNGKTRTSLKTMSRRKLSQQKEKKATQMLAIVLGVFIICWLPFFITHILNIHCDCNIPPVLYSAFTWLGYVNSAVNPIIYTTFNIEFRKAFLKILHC
#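 Agonist mode: compounds alone added to overnight-plated D2 PathHunter cells for 90 min at 37 C, with 57 uM final dopamine (EC100) defining full response. Beta-arrestin recruitment detected by chemiluminescent reagent, read after 1 h at ambient temperature.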
# gsp antagonist: qHTS for Antagonists of gsp, the Etiologic Mutation Responsible for Fibrous Dysplasia/McCune-Albright Syndrome: qHTS | gsp-mutant cells, cAMP HTRF, 30 min; control for the full effect not named in the record | Potency, µM (titrated, usually from 76.9 µM), for the others: top-dose activity change, negative = inhibition, most hits filed as inhibitors | actives 0.4% (n = 340,000); active = falling curve of any shape with a large fitted effect; inconclusive = falling curve, mostly with a smaller effect; inactive = flat or rising curve; cell line not stated here;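 further: intracellular cAMP measured with PDE inhibitor Ro 20-1724 present during compound exposure; potency means the concentration at half of the fitted maximal effect; on the % scale 0 is the no-effect control and ±100 the full control effect; nearly all actives have a fitted effect of over 65% in size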
#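 HTRF cAMP measurement after 30 min RT detection following 30 min, 37C compound treatment alongside […] (added as 300 uM solution) in G418-selected cells seeded at 2000/well and grown 16–24 h.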
# gsp ag: qHTS for Agonist of gsp, the Etiologic Mutation Responsible for Fibrous Dysplasia/McCune-Albright Syndrome: qHTS | actives 0.13% (n = 340,000) | Potency, µM (series often up to 76.9 µM), for the others: at the highest dose activation (cAMP increase), usual class: activators | gsp mutant cells, cAMP HTRF, 30 min; control for the full effect not named in the record; active = well fitted activation curve with a large enough effect; inconclusive = small, poorly fitted or top-dose-only effect, or another doubt; inactive = no such curve, though single readings can be large or run the other way; cell line not stated here;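 further: phosphodiesterase inhibitor Ro 20-1724 added with compounds to block cAMP breakdown; potency means the concentration at half of the fitted maximal effect; nearly all actives have a fitted effect of over 60% in size; about a fifth of the inactives were tested at one dose only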
#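 Cells in DMEM/10% FBS with G418 were pretreated with compounds in DMSO plus […] (300 uM stock) for 30 min at 37C. cAMP was measured by HTRF (cAMP-d2 plus anti-cAMP antibody-K) after 30 min at room temperature.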
# PINK1 expr mod: A Quantitative High throughput Screen to Identify Chemical Modulators of PINK1 Expression | PINK1 immunofluorescence, high-content cytometry, 24 h | Potency, µM (series often up to 76.6 µM), for inactives: at the highest dose activation (PINK1 increase), usual class: activators | actives 0.2% (n = 410,000) | AID 624263, 2012; active = well fitted activation curve with a large enough effect; inconclusive = small, poorly fitted or top-dose-only effect; inactive = flat fitted curve, though single readings scatter; cell line not stated here;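 further: potency means the concentration at half of the fitted maximal effect; % of control where 0% means no effect; nearly all actives have a fitted effect of over 65% in size; a mitochondrial uncoupler was the plate control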
#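 PINK1 protein level read as immunofluorescence by microplate cytometer in a fixed, stained stable cell line after 24 h exposure to five compound concentrations, with CCCP as control.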
# * = called active by the depositor; ? = inconclusive; . = no result given; & = joins results of further samples; [ ] = remark or other dose.
# Sequence of screens: Sfp inh	Menin MLL FP FL	ClpP mod	D2 ag	gsp antagonist	gsp ag	PINK1 expr mod
COc1cccc(C(=O)NCc2n[nH]c(=S)n2-c2cccc(C)c2)c1
    -0.2%	0.7	-2.5%	3.2	0.1%	2.8%	-1.6%[38.3 µM]
Cc1[nH]c(C)c(S(=O)(=O)N2CCc3ccccc32)c1C(=O)N1CCCCC1
    20.9%	-1.3	-0.9%	0.4	-8.9%	-39.4%[inhibitor]	-0.6%
CCN(CC(=O)Nc1ccc(NC(C)=O)cc1)CC(=O)Nc1ccc(F)c(Cl)c1
    -7.2%	0.1	.	4.4	-11.6%	-12.5%	-0.2%
S=C(Nc1ccc(Cl)cc1)c1nc2ccccc2[nH]1
    21.3%	-1.0	-0.5%	2.1	-11.5%	-2.0%	6.4%
O=C1CC(c2ccc(Cl)cc2)n2nc(N3C(=O)c4ccccc4C3=O)nc2N1 (centres undefined)
    -28.4%	5.9	-9.4%	-3.9	-2.8%	22.1%	5.9%
O=C(NCc1ccccc1)/C(=C/c1ccco1)NC(=O)c1ccco1
    3.0%	6.0	0.2%	-3.6	3.9%	4.0%[15.4 µM]	0.2%
COC(=O)[C@]1(C)N[C@H](c2ccc(-c3ccc(OC)cc3)cc2)[C@@H]2C(=O)N(C)C(=O)[C@@H]21
    .	.	?	-2.0	-3.0%	-0.4%	2.6%
O=C(c1cc(Br)c[nH]1)N1CCCCC1
    -1.6%	-3.4	0.6%	1.4	9.7%	-39.3%[inhibitor]	-0.6%
Cc1c(F)cccc1NC(=O)CCC(=O)O
    20.3%	0.3	-4.9%	-2.7	7.2%	2.2%	0.1%
Cc1ccccc1-c1cc(-c2ccccc2O)n[nH]1
    8.1%	1.3	0.2%	-0.1	-14.2%	7.3%	0.1%
Cc1sc(NC(=O)C2CSC3(C)CCC(=O)N23)nc1-c1ccccc1 (centres undefined)
    .	.	-4.8%	11.2	-2.7%	4.6%	0.4%
O=C(NC12CC3CC(CC(C3)C1)C2)c1ccco1
    9.4%	0.7	0.9%	-0.5	-10.3%	8.3%[15.4 µM]	1.4%
Cc1cc(C)n(CC(=O)NNC(=O)COc2ccc(Cl)cc2Cl)n1
    .	.	0.8%	-0.8	-4.0%	-2.1%	1.4%
CC(C)(C)C(=O)Nc1nnc(SCC(=O)NC2CCCCC2)s1
    5.9%	-0.4	.	-1.7	15.5%	1.2%[15.4 µM]	-1.0%
CCN1C(=O)C(O)(CC(=O)c2ccccn2)c2ccccc21 (centres undefined)
    8.8%	1.0	-0.1%	-2.8	10.7%	-37.4%[inhibitor]	.
Cc1cc(C)nc(N(C#N)Cc2cccc([N+](=O)[O-])c2)n1
    -5.9%	1.4	-0.4%	0.3	-0.9%	4.1%	-1.2%
O=C(COc1ccccc1)N1c2ccccc2Sc2ccccc21
    -3.3%	-2.0	15.8µM*	-1.2	-12.9%	-22.8%	8.2%
Cc1nc2ccccc2nc(C)c1=NOCc1cccc(F)c1
    11.8%	1.2	-13.4%	-4.1	-6.0%	-9.1%[15.4 µM]	6.3%
CC1(C(=O)Nc2ccc(F)cc2F)CCN1C(=O)Cc1ccccc1 (centres undefined)
    .	.	-0.5%	-7.0	.	.	2.3%
COc1cccc(C(c2sc3nc(C)nn3c2O)N2CCC3(CC2)OCCO3)c1 (centres undefined)
    19.7%	1.0	1.7%	-0.5	4.7%	0.3%	-1.5%
COc1ccc(Cl)cc1NC(=O)C1CC(c2ccccc2Cl)=NO1 (centres undefined)
    .	.	1.6%	0.3	.	?	7.2%
O=C(c1ccccc1SCc1ccc(F)cc1)N1CCOCC1
    0.4%	-4.8	1.2%	-1.7	8.2%	-17.6%	1.6%
COc1ccc(CNc2ncc(-c3ccc(F)cc3)n2C)c2ccccc12
    -22.4%	-6.3	.	-2.3	-6.6%	-24.3%	?
COc1cccc(N2C(=O)C3CC=C(Cl)CC3C2=O)c1 (centres undefined)
    11.9%	4.1	0.3%	-3.2	3.6%	26.8%	5.9%[38.3 µM]
O=C(NNC(=S)NC1CCCCC1)c1ccccc1Br
    -1.6%	.	-4.8%	-26.9	1.9%	-3.1%	1.5%
CC(=O)C1=CN(Cc2ccccc2)CCC1=O
    .	.	-1.8%	2.1	2.9%	.	0.6%
O=C(Cc1c(O)c2ccccc2[nH]c1=O)NCc1ccc(F)cc1
    14.7%	1.8	?	-3.9	-1.1%	0.5%	2.0%
COc1ccc(/C=C2\SC(=O)N(CC(=O)Nc3ccc(F)cc3)C2=O)cc1O
    -26.6%	-0.7	7.0%	6.8	-1.9%	-0.4%	-0.3%
O=C(Nc1ccccc1)c1ccc(S(=O)(=O)N2CCC(C(=O)O)CC2)cc1
    7.9%	.	-19.4%	-1.5	2.3%	-6.0%	-3.9%
CN(C)CCCCCCCCCCC(=O)/C=N/O
    .	.	-1.4%	0.2	-11.3%	?	0.9%[38.3 µM]

# Quoted at random: 3 records from the list
# Sequence of screens: Sfp inh	Menin MLL FP FL	ClpP mod	D2 ag	gsp antagonist	gsp ag	PINK1 expr mod
Cc1nc2ccccc2nc(C)c1=NOCc1cccc(F)c1
    11.8%	1.2	-13.4%	-4.1	-6.0%	-9.1%[15.4 µM]	6.3%
Cc1sc(NC(=O)C2CSC3(C)CCC(=O)N23)nc1-c1ccccc1 (centres undefined)
    .	.	-4.8%	11.2	-2.7%	4.6%	0.4%
O=C(Cc1c(O)c2ccccc2[nH]c1=O)NCc1ccc(F)cc1
    14.7%	1.8	?	-3.9	-1.1%	0.5%	2.0%

# More entries
# Sequence of screens: Sfp inh	Menin MLL FP FL	ClpP mod	D2 ag	gsp antagonist	gsp ag	PINK1 expr mod
CCOc1ccc2[nH]c(O)c(NC(C)=O)c2c1
    -3.8%	-2.2	0.2%	-4.3	-2.8%	-79.1%[inhibitor]	.
Cc1cccc(C)c1NC(=O)C(NC(=O)CN1C(=O)c2ccccc2C1=O)c1ccccc1 (centres undefined)
    -20.9%	1.1	0.1%	-0.5	-7.0%	-3.6%[15.4 µM]	0.5%
CN(CC(=O)Nc1cc(S(=O)(=O)N2CCCC2)ccc1Cl)Cc1ccc2c(c1)OCO2
    .	.	-0.8%	-2.1	-16.4%	1.8%	-0.2%
O=C1C=CC2C(c3ccc4c(c3)OCO4)CC1N2Cc1ccccc1 (centres undefined)
    7.6%	18.2	-14.1%	-1.2	8.8%	5.5%	-0.6%
O=C(Nc1ccc(Br)c(C(F)(F)F)c1)c1ccccc1
    2.7%	8.2	1.0%	0.5	?	-14.5%	?
Cc1ccccc1OCC(=O)Nc1nc(C)c(C(=O)N(C)C)s1
    -6.9%	3.0	2.4%	-5.1	-0.4%	-37.1%[inhibitor]	6.8%
CCCCn1c(SCC(=O)Nc2cc(NC(=O)c3ccco3)ccc2C)nc2ccccc2c1=O
    -14.0%	5.6	286.2%	-1.5	-13.6%	1.3%	9.3%[38.3 µM]
COc1ccc(N(CC(=O)Nc2cc(Cl)ccc2OC)C2=NC3CS(=O)(=O)CC3S2)cc1 (centres undefined)
    13.7%	-1.6	0.9%	-1.9	4.2%	?	1.0%
O=C(Nc1ccccc1)c1nc[nH]c1C(=O)Nc1ccccc1F
    .	.	20.4%	-5.3	.	7.1%	4.4%
Cc1nn(C)c(C)c1NC(=O)c1cc2nc(-c3ccco3)cc(C(F)(F)F)n2n1
    -27.0%	7.3	.	0.0	9.9%	16.9%	3.9%
O=C(CN1C(=O)C2C3C=CC(C3)C2C1=O)Nc1ccc(S(=O)(=O)N2CCCCC2)cc1 (centres undefined)
    7.1%	3.2	-1.3%	0.6	-15.9%	7.2%[15.4 µM]	1.7%
CCS(CC)=NS(=O)(=O)c1ccc(NC(C)=O)cc1
    3.2%	1.5	-1.0%	-0.7	4.7%	-2.0%	-1.2%
O=C(/C=C/c1ccccc1)Nc1ncn[nH]1
    -6.6%	7.2	-0.6%	-3.8	5.7%	-11.7%	9.7%[38.3 µM]
O=C(N[C@H](Cc1cc(=O)[nH]c2ccccc12)C(=O)O)c1ccc(Cl)cc1
    13.1%	2.0	.	-0.1	8.6%	11.2%[15.4 µM]	-1.2%
CCn1c(SCC(=O)n2c(C)c(C)c3ccccc32)nnc1-c1ccco1
    -8.1%	0.9	-1.3%	-2.8	-14.8%	21.5%	5.4%
COc1ccc(C(=O)N2CCN(CCNC(=O)C(=O)Nc3ccc(F)cc3)CC2)cc1OC
    13.0%	0.8	.	1.1	9.2%	-28.4%	2.8%
CCCCNC(=O)c1ccc2c(c1)ncn2C1CCCCC1
    17.2%	3.3	-2.4%	2.4	-9.4%	-44.6%[inhibitor]	1.6%
CC(=O)C1=C(C)N(CC2CC2)C(=O)N[C@H]1c1ccc(Br)cc1
    -11.1%&7.6%	-3.7&-0.1	1.7%	-0.2	3.2%	.	1.2%
O=C(c1ccccc1)N1CCOC12CCN(c1ncc(C(F)(F)F)cc1Cl)CC2
    12.4%	1.2	-1.1%	-1.8	2.2%	-38.7%	1.1%

# Rows were taken by chance; 5.1% or so of the library scored in one or more.
